VDR inh: blocks the human vitamin D receptor; VDR-SRC2-3 peptide fluorescence polarization, 2 h; actives 0.93% (n = 400,000); Potency, µM, for inactives: max response, negative = inhibition, hits mostly inhibitors; P11473; active = well fitted inhibition curve with a large enough effect; also: series mostly up to about 120 µM
Target sequence (P11473 whole entry, looked up): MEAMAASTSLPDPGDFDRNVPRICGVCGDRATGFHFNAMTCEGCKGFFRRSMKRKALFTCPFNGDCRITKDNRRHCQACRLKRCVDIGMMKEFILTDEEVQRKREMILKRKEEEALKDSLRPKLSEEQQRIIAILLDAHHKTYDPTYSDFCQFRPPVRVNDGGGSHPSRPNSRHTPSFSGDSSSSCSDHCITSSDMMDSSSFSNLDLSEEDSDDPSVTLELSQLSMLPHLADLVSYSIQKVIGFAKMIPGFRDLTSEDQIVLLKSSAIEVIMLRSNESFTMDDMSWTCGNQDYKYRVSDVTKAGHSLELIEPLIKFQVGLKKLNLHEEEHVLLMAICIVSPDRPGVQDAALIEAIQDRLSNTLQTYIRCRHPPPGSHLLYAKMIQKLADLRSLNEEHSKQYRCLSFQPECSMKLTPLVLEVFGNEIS
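The screen uses fluorescence polarization to detect compounds that interfere with recruitment of the SRC2-3 coactivator peptide to VDR; plates are read after 2 h at room temperature.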
* marks the source's active call; other numbers are inactive results. % is scaled to controls: 0 for no effect and ±100 for the full control effect; potency is read from the fitted curve at half-maximal effect.

Compound,VDR inh
COc1ccc(C)cc1COC(=O)c1[nH]c(C)c(C(C)=O)c1C,-8%
CCOC(=O)CSC1=C(C#N)C(c2sccc2C)C(C(C)=O)=C(C)N1 (configuration not stated),-14%
COc1ccc(NC(=O)c2cnc(Nc3ccc(C)c(Cl)c3)c3ccccc23)c(OC)c1,-5%
COCCN1C(=O)C(=O)/C(=C(/O)c2ccc(S(=O)(=O)N3CCCCC3)cc2)C1c1ccc(O)c(OC)c1 (configuration not stated),-1%
CC(=O)NCC(=O)N(C)C(C(=O)Nc1ccc2c(c1)OCCO2)c1ccc(C)cc1 (configuration not stated),17%
CC(Sc1ccccc1)C(=O)N1CCN(S(=O)(=O)c2cccc(Br)c2)CC1 (configuration not stated),-9%
CC(C)(C)C1CCc2c(sc3c2C(=O)NC(c2ccco2)N3)C1 (configuration not stated),-28%
O=C(C(=O)N1CCOCC1)c1cn(CCOc2ccccc2)c2ccccc12,12%
CCCNC(=O)CN1CCN(c2cc3ccccc3c(Cl)n2)CC1,12%
CCCCCN(C(=O)CCC(=O)OCCOc1cccc(Cl)c1)c1c(N)n(CCCC)c(=O)[nH]c1=O,-8%
CC1CCCC(NC(=S)NC(=O)c2ccco2)C1C (configuration not stated),-18%
O=C(CCCc1c[nH]c2ccccc12)NCc1ccccc1C(F)(F)F,-11%
CC(NC(=O)c1ccco1)C(c1cccs1)N1CCN(c2ccccc2F)CC1 (configuration not stated),-11%
C/C(=N\NC(=O)c1nnn(-c2nonc2N)c1CN(C)c1ccccc1)c1ccc(O)cc1,-19%
CCOc1ccc(NC(=O)Cc2ccccc2)cc1,-16%
CCn1cc(CNc2nc3nonc3nc2N2CCCCC2)cn1,11%
Cc1c([N+](=O)[O-])ccc(S(=O)(=O)N2CCC(C(N)=O)CC2)c1C,-9%
O=C(NCCCN1CCOCC1)c1ccc(-n2nc(C(F)(F)F)cc2-c2cccs2)cc1,4%
CCOC(=O)c1cc(-c2ccccc2)n(CC(=O)Nc2cccc(OC)c2)c1C,11%
O=c1c(-c2c(O)cc(O)c3c2O[C@H](c2ccc(O)cc2)CC3)c(-c2ccc(O)cc2)oc2cc(O)cc(O)c12,-4%
CC(NC(=O)/C(=C/c1ccc2c(c1)OCO2)NC(=O)c1cccc([N+](=O)[O-])c1)C(=O)O (configuration not stated),0%
O=C(NCc1ccccc1)c1c(Cl)nc(Cl)c(Cl)c1Cl,17%
Cc1nn(CC(=O)NCC(C)c2ccccc2)c(=O)c2cc(-c3ccccc3)nn12 (configuration not stated),-3%
COc1ccc(NC(=S)NC(=O)/C=C/c2cccs2)cc1,-3%
Cc1nn(C)c(C)c1S(=O)(=O)N(CC(=O)N1CCN(c2ccccc2)CC1)c1ccc(C(C)C)cc1,-6%
COc1ccc(Cl)cc1NC(=O)CN(C)S(=O)(=O)c1ccc(Br)s1,8%
COc1ccc(-c2[nH]ncc2N=Nc2cc(C)cc(C)c2)cc1,3%
COc1ccc(CN2CCNC(=O)C2CC(=O)O)cc1OC (configuration not stated),-14%
O=C(O)c1cc(-c2cccs2)nc2ccc(F)cc12,-1%
COc1cccc(NC(=O)C(=O)N/N=C/c2ccc3c(c2)OCO3)c1,12%

Some of these compounds in order of heavy-atom count, largest number first:
Compound,VDR inh
Cc1nn(C)c(C)c1S(=O)(=O)N(CC(=O)N1CCN(c2ccccc2)CC1)c1ccc(C(C)C)cc1,-6%
O=C(NCCCN1CCOCC1)c1ccc(-n2nc(C(F)(F)F)cc2-c2cccs2)cc1,4%
Cc1c([N+](=O)[O-])ccc(S(=O)(=O)N2CCC(C(N)=O)CC2)c1C,-9%
COc1ccc(CN2CCNC(=O)C2CC(=O)O)cc1OC (configuration not stated),-14%
O=C(NCc1ccccc1)c1c(Cl)nc(Cl)c(Cl)c1Cl,17%

Carrying on.
Compound,VDR inh
NC1=NC(c2cccc(Cl)c2)n2c(nc3ccccc32)N1 (configuration not stated),-20%
COc1ccc(-c2nnn(CC(=O)NCc3ccc4c(c3)OCO4)n2)cc1OC,-11%
Cc1ccc(-c2nc(NC(=O)c3nn(C)cc3[N+](=O)[O-])sc2C)cc1,-1%
Cc1ccccc1/C=C1\Sc2ccc(C(=O)N3CCN(c4ccccn4)CC3)cc2N(C)C1=O,-1%
NC(=O)c1cc(C(=O)c2ccccc2Cl)c[nH]1,-10%
COc1ccc(-c2cc(C(=O)OCC(=O)N3CCCC3)c3ccccc3n2)cc1,11%
c1ccc(-c2nc(-n3nc4ccccc4n3)nc3ccccc23)cc1,0%
CS(=O)(=O)Nc1cccc(-c2ccc3ncnc(N4CCNCC4)c3c2)c1,-1%
CC(C)CC(=O)Nc1ccc(N2CCOCC2)cc1,-4%
CC1=CC=CN2CC(O)CN=C12 (configuration not stated),-1%
CC(OC(=O)c1ccccc1Oc1ccccc1)C(=O)NC1CC1 (configuration not stated),3%
COC(=O)CSc1cnc2ccccc2n1,4%
COc1ccc(CNC(=O)CN2C(=O)CCSc3ccc(S(=O)(=O)N4CCCC4)cc32)cc1,13%
COc1cccc(N2CCN(C(=O)CN3C(=O)COc4ccc(S(=O)(=O)N5CCC(C)CC5)cc43)CC2)c1,15%
O=C1C2C3C=CC(C3)C2C(=O)N1CN(Cc1ccccc1)CN1C(=O)C2C3C=CC(C3)C2C1=O (configuration not stated),-6%
Cc1ccc(NC(=O)CCCN2C(=O)c3cccc4cccc(c34)C2=O)cc1,-22%
CC(=O)Nc1ccccc1C(=O)C(=O)Nc1ccc(C)c(F)c1,-13%
O=C(CO/N=C/c1ccc(OC(F)F)cc1)NC1CCCC1,19%
CCCCn1c(N)c(N(CC)C(=O)c2ccc(Cl)c([N+](=O)[O-])c2)c(=O)[nH]c1=O,-11%
O=S(=O)(NCCC1=CCCCC1)c1c(Cl)cccc1Cl,-6%
Cc1ccc(CNC(=O)c2ccc(S(=O)(=O)N3CCCCC3)cc2)cc1,1%
Cc1nn(-c2ccccc2)cc1/C=N/NC(N)=S,0%
CC(=O)Nc1ccc(NC(=O)CSc2ncnc3sc(C)c(C)c23)cc1,14%
Cc1nc([N+](=O)[O-])c(Sc2nc3ccccc3[nH]2)n1Cc1ccccc1,-15%
COC(=O)Cc1c(C)c2ccc3c(c2oc1=O)CN(Cc1ccccc1OC)CO3,5%
COc1ccc(OC)c(-n2c(=S)[nH]c3cc(C(=O)N4CCC(C(N)=O)CC4)ccc3c2=O)c1,2%
CCc1ccccc1NC(=O)C(C)n1nc([N+](=O)[O-])c(Br)c1C (configuration not stated),5%
CCCC(=O)Nc1ccc(S(=O)(=O)Nc2cc(OC)ncn2)cc1,3%
CC(NC(=O)c1ccc2c(c1)N(Cc1ccc(Cl)cc1)C(=O)CS2)c1ccccc1 (configuration not stated),8%
Cc1nnc(NC(=O)c2cccc(S(=O)(=O)N3CC(c4ccccc4)CC3=O)c2)s1 (configuration not stated),-11%
CC(C)(C)NC(=O)c1ccccc1-c1nc2ccccc2s1,-23%
O=C1NCCCc2c1no[n+]2[O-],3%
COc1ccc(N(CC(=O)N/N=C(\C)c2ccc(C)cc2)S(=O)(=O)c2ccccc2)cc1,-6%
Cc1cccc(C(=O)NC(=S)Nc2ccccc2C(F)(F)F)c1,-25%
C/C(NCc1cccnc1)=C(\C#N)C(=O)NCc1ccccc1,4%
O=C(CC1OC(=O)c2ccccc21)NNC(=O)c1ccc(F)cc1 (configuration not stated),-25%
COc1cc2nc(N3CCCN(C)CC3)nc(NC3CCN(Cc4ccccc4)CC3)c2cc1OC,-8%
CC(Sc1nncn1C)C(=O)NCc1ccc2c(c1)OCO2 (configuration not stated),-1%
Cn1c(N)c(C(=O)COC(=O)Cc2ccc(F)cc2)c(=O)n(C)c1=O,3%
C=CCC1(CC=C)CCCN1C(=O)c1cc(COc2cccc(OC)c2)on1,9%
C=CCNC(=O)c1cc(-c2cccnc2)nc2ccccc12,25%
O=C(Cn1c(COc2ccccc2)nc2ccccc21)Nc1cc(Cl)ccc1Cl,-12%
CC1=NN(c2ccccc2)C(=O)C1N=Nc1ccccc1 (configuration not stated),-8%
CCCC1(C(=O)OC)NC(c2cc(OC)c(OC)c(OC)c2)C2C(=O)N(CC)C(=O)C21 (configuration not stated),1%
O=C(Nc1ccccc1)c1nn(-c2cccc(C(F)(F)F)c2)ccc1=O,-7%
CCOC(=O)Nc1ccc2c(c1)nc1n2CCN(CCOC)C1,-24%
Fc1cccc(-n2ncc3c2ncn2nc(Cc4ccccc4)nc32)c1,-3%
O=S(=O)(c1ccc(NC(=S)NCCC(c2ccccc2)c2ccccc2)cc1)N1CCOCC1,-19%
CC1(C)O[C@@H]2[C@H](O1)[C@@H](CO)O[C@H]2n1cc(Br)c(=O)[nH]c1=O,5%
Cc1ccc(CN(C)C(=O)c2cccc(S(=O)(=O)N3CCN(c4ccccc4)CC3)c2)cc1,-25%
COc1cc(OC)cc(C(=O)OC/C(O)=C(\C#N)c2nc3ccccc3[nH]2)c1,-4%
CCOC(=O)c1sc(=S)n(C)c1NC(=O)c1ccccc1,79µM*
CCCCC(=O)N1CCN(c2nc3ccc(F)cc3s2)CC1,-16%
COc1ccccc1NC(=O)N1CCCC1C(=O)Nc1ccc2c(c1)OCO2 (configuration not stated),10%
Nc1cc(=O)[nH]c(SCC(=O)Nc2ncc(C(F)(F)F)cc2Cl)n1,-1%
COc1ccccc1C1SCCN1C(=O)c1ccc([N+](=O)[O-])cc1 (configuration not stated),-3%
Cc1cc(C)c2c(=O)n(CC(=O)Nc3cccc(F)c3)sc2n1,14µM*
COc1ccc(C)cc1N(C(=O)c1ccc(C#N)cc1)C1=NC(C)(C)CS1,9%
CCOCCCNC(=O)C(NC(=O)Cc1cccs1)c1ccccc1 (configuration not stated),-2%
COc1cc(NC(=O)c2cc(OC)c(OC)c(OC)c2)ccc1NC(=O)c1cccs1,-15%

Retrieved by compound from above, 3 records:
Compound,VDR inh
CC(NC(=O)c1ccc2c(c1)N(Cc1ccc(Cl)cc1)C(=O)CS2)c1ccccc1 (configuration not stated),8%
COc1ccc(OC)c(-n2c(=S)[nH]c3cc(C(=O)N4CCC(C(N)=O)CC4)ccc3c2=O)c1,2%
O=C1NCCCc2c1no[n+]2[O-],3%

Laid out differently: results already given.
COc1ccccc1NC(=O)N1CCCC1C(=O)Nc1ccc2c(c1)OCO2 (configuration not stated)
  VDR inh: 10%

Nc1cc(=O)[nH]c(SCC(=O)Nc2ncc(C(F)(F)F)cc2Cl)n1
  VDR inh: -1%

(cont.)
Compound,VDR inh
NS(=O)(=O)c1ccc(NC(=O)COC(=O)c2cc3ccccc3oc2=O)cc1,-4%
O=C(NC1CCCCCC1)C1CCN(S(=O)(=O)N2CCC3(CC2)OCCO3)CC1,12%
CC1(C)CC(=O)C2=C(C1)OC(N)=C(C#N)C2c1ccsc1 (configuration not stated),-5%
CC12CC3CC(C)(C1)CC(C(=O)NCc1cccnc1)(C3)C2,0%
COc1cccc(/C=N/NC(=O)C(=O)NCc2cccnc2)c1O,-2%
CCCOC1CCCN(C(=O)c2ccc(OC3CCN(C(=O)COC)CC3)cc2)C1 (configuration not stated),3%
O=C(O)c1ccc(CNCc2ccc(Cl)cc2)s1,-7%
O=C(Nc1ccc(NC(=S)NC(=O)c2ccccc2F)cc1)c1cccs1,9%
C=C(C)Cn1c(Sc2nnc(C)s2)nc2c1c(=O)[nH]c(=O)n2C,1%
Cc1cnc(CNc2ncnc3ccc(-c4ccccc4C)cc23)cn1,-20%
COc1ccc(S(=O)(=O)O/N=C2\CCSc3ccc(C)cc32)cc1,0%
CCOC(=O)Cn1c(=O)oc2cc(S(=O)(=O)Nc3cccc(C)c3)ccc21,-14%
CCOc1c(Br)cc(Br)cc1/C=C1\SC(N)=NC1=O,5%
CC(=O)C1=C(c2ccc(C)c(C)c2)N(C(C)=O)n2c(nnc2-c2ccc(Cl)cc2)S1,-3%
Cc1cc2oc3c(c(=O)c2cc1C)C(c1ccc(C(C)C)cc1)N(c1nc(C)c(C)s1)C3=O (configuration not stated),4%

VDR inh, entries above that show a hit
Compound,VDR inh
CCOC(=O)c1sc(=S)n(C)c1NC(=O)c1ccccc1,79µM*
Cc1cc(C)c2c(=O)n(CC(=O)Nc3cccc(F)c3)sc2n1,14µM*

Continuation.
Compound,VDR inh
CCOc1ccc(N=C(NN)c2ccc3ccccc3n2)cc1,5%
CS(=O)(=O)N(CC(=O)N1CCCC1)c1ccc(Cl)c(Cl)c1,28%
Nc1ncnc2c1ncn2[C@@H]1O[C@H](CNS(=O)(=O)c2cc3ccccc3s2)[C@@H](O)[C@H]1O,3%
CC(NC(=O)c1ccccc1F)c1nnc(SCC(=O)Nc2nccs2)n1C (configuration not stated),4%
Cc1ccc(S(=O)(=O)c2nc(-c3ccco3)oc2SCC(=O)Nc2ccc(F)cc2)cc1,-3%
CCNC(=S)N1CCc2ccccc2C1,5%
COc1cc(C(=O)OCC(=O)c2cc(C)n(CC3CCCO3)c2C)cc(OC)c1C (configuration not stated),-4%
COc1ccc(NC(=O)CCC(=O)N2CCN(S(=O)(=O)c3ccc(C)cc3)CC2)c(OC)c1,-13%
CC(C)CCNc1nc(N2CCCC2)c2c(c1C#N)CCN(C)C2,-4%
O=C(Nc1ccc(N2CCOCC2)c(Cl)c1)c1ccc(S(=O)(=O)N2CCOCC2)cc1,8%
COc1cccc(/C=N/NC(=O)CCNc2n[nH]c(=O)[nH]c2=O)c1OC,4%
Cc1cccc(OC(C)C(=O)NCc2ccc(S(N)(=O)=O)cc2)c1 (configuration not stated),-11%
COc1cc(OC)cc(C(=O)NCC(=O)OCC(=O)NCc2ccco2)c1,-12%
COc1ccc(S(=O)(=O)Nc2noc3ccccc23)cc1,-9%
CC(C)Cc1nnc(NC(=O)c2ccc([N+](=O)[O-])cc2)s1,8%

A portion of the library; rates above refer to the full screens.
